# Mtb H37Rv = M. tuberculosis H37Rv growth inhibitors, H37Rv strain (AID 1626); 0.95% of 220,000 active; M. tuberculosis H37Rv growth inhibition; higher % means a stronger effect; one-dose inhibition, % at 10 µM; IC50 in µM for titrated hits;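 active = confirmed in a dose series; inconclusive = inhibition above 80% but not taken into the dose series; inactive = below 80% or under 30% at every dose of the series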;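 note: bacteria incubated seven days before Alamar blue readout; 0% = bacteria only wells and 100% = bacteria with antibiotic wells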
# YopH inh = inhibitors of Yersinia enterocolitica YopH tyrosine phosphatase. fluorescence Ex485/Em525. 0.16% of 140,000 active. inhibition, %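 (about 10 µM by stock and volumes)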. AID 898;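 active = inhibition of 50% or more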;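 note: controls were vehicle for no effect and minimum signal wells for full effect; inactives centre near -20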
# Mtb betalactam = beta-lactam sensitization of Mtb H37Rv; 0.27% of 330,000 active; M. tuberculosis H37Rv growth with meropenem, percent inhibition; hits of this screen are not shown here; inhibition, % at 25 µM; AID 434955;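 active = about 74% or more and at least 40 points above the plate without the antibiotic, then above 30% in a dose series; inconclusive = first-round hits that could not be retested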;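 note: growth measured after seven days incubation then overnight dye step; 0% = bacteria only wells and 100% = bacteria with antibiotic; twin plates without the antibiotic show which effects depend on it; some results filed as inactive read as strong as hits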
# RecA intein inh = Mtb RecA intein splicing inhibition; P9WHJ3; cell-free RecA intein splicing, fluorescence; inhibition, %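 (about 9 µM by stock and volumes)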; 0.75% of 290,000 active; AID 2221; in the data active = inhibition above about 30%; inconclusive = no clear call, values can overlap the other calls;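 note: 0% = vehicle wells and 100% = reference inhibitor control wells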
# Target sequence (P9WHJ3 whole entry, looked up): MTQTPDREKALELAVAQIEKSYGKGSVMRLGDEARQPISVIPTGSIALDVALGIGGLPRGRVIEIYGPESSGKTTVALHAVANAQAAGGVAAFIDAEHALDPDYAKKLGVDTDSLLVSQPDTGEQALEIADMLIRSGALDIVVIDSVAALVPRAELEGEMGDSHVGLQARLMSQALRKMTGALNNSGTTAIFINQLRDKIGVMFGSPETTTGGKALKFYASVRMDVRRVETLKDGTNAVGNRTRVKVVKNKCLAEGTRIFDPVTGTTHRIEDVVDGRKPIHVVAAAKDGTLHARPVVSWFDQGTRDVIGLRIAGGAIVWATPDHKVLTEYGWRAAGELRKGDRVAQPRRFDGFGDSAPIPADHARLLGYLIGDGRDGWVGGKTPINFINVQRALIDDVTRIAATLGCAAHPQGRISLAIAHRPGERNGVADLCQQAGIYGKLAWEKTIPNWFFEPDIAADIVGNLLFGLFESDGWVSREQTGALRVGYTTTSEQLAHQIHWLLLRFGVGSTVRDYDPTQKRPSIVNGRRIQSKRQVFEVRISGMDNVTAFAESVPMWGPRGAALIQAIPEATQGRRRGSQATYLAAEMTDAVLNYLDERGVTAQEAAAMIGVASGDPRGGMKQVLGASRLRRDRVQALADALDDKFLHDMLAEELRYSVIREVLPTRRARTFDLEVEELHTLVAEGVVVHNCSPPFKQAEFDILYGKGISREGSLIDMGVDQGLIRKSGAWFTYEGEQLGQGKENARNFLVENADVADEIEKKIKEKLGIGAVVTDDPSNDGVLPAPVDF
# Arbovirus inh = arbovirus infection inhibition; arbovirus infection cell-based antiviral screen; inhibition, % at 10 µM; 0.37% of 200,000 active;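 active = inhibition from about 30%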;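 note: bluetongue infection of BSR cells; cell survival read as ATP light after 72 h; 0% = infected wells without compound and 100% = uninfected wells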
# Arbovirus inh repeat = also measured in Arbovirus inh; calls as there; inhibition, %; measured here: 10K subset replicate screen; many hits read low in the repeat;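 first of two repeat runs on a subset; 0% = infected and 100% = uninfected wells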
# * = called active by the depositor; u = inconclusive; x = no result given.
SMILES,Mtb H37Rv,YopH inh,Mtb betalactam,RecA intein inh,Arbovirus inh,others
c1cnc2ccc(C(c3nnnn3C3CCCCC3)N3CCN(C4CCCCC4)CC3)cc2c1 (stereo not drawn),-7%,-20,-2,-0.5,x,
C(=N\n1cncn1)/c1ccc(N2CCOCC2)cc1,-1%,-45,-1,-3.7,2,
O=C(NC(=S)Nc1nc2ccccc2s1)c1ccco1,0%,-40,10,-0.9,-14,
COc1ccc(S(=O)(=O)NCCSc2ccccc2)cc1OC,-4%,-15,-12,2.6,5,
CC(=O)N1CSCC1C(=O)NNS(=O)(=O)c1ccccc1 (stereo not drawn),-7%,x,3,-3.2,x,
Cc1ccc(-c2ccc(S(=O)(=O)NCC3CCCO3)cc2)cc1 (stereo not drawn),-9%,x,3,2.7,-9,
COc1ccc(-c2cn(/N=C/c3ccc(Cl)cc3Cl)c(N)n2)cc1,10%,6,-2,5.4,1,
COCCCN(C(=S)Nc1ccc(OC)cc1)C(C)c1ccncc1 (stereo not drawn),6%,x,-6,-2.2,5,
COCCNC(=O)CCC(=O)NNc1nc2ccccc2c2nc(-c3ccccc3)nn12,0%,x,44,-0.7,-3,
CCN(CC)CCN/N=C(\C)c1c(O)[nH]c(=O)[nH]c1=O,0%,x,-7,-6.6,x,
CCOC(=O)N1CCC(NC(=O)c2cc(C(=O)NC3CCN(Cc4ccccc4)CC3)ccc2CO)CC1,8%,x,-3,-2.4,7,
CCOC(=O)C1C(=O)NC23CCCC2C1c1ccccc1O3 (stereo not drawn),-2%,-41,1,1.1,-1,
Cc1ccc(N2CCC(N3CCN(C4CCCCC4)C(CCO)C3)CC2)cc1 (stereo not drawn),2%,x,-1,-1.0,6,
COc1ccc([N+](=O)[O-])cc1NC(=O)CCN1CCN(CCO)CC1,1%,-13,2,-0.2,-4,
COc1ccc(Cn2c(CO)cnc2SCC(=O)Nc2cccc(NC(C)=O)c2)cc1,x,x,0,-3.7,x,
CCOc1ccc(N2Nc3n[nH]c(N)c3N2)cc1,2%,-20,83,11,-13,
Cc1ccc(N2CCN(CC(O)COc3cccc(C)c3)CC2)cc1 (stereo not drawn),x,x,15,0.1,x,
CN1CCN(c2ccc(NC(=O)c3cccc(OCc4ccccc4)c3)cc2)CC1,x,-15,99,0.7,-25,
O=S(=O)(NC(=S)NC1CCCCC1)c1ccc(Br)cc1,9%,x,-2,-0.4,13,
COc1cc(/C=N/Nc2ccc(C)cc2)cc(Br)c1O,u,x,95,3.2,-25,
COCCCNC(=S)NNC(=S)Nc1ccc(F)cc1F,-1%,-41,-3,-4.7,3,
Cc1ccccc1C(=O)Nc1nc(-c2cccnc2)cs1,-7%,x,-3,-1.6,x,
COc1ccc2cc(Br)ccc2c1CC(=O)NC(C)(C)C,-6%,-18,9,1.0,2,
OC(CN1CCOCC1)(c1ccccc1)c1ccccn1 (stereo not drawn),x,x,0,-0.3,x,

# An excerpt from further up:
SMILES,Mtb H37Rv,YopH inh,Mtb betalactam,RecA intein inh,Arbovirus inh,others
Cc1ccc(N2CCC(N3CCN(C4CCCCC4)C(CCO)C3)CC2)cc1 (stereo not drawn),2%,x,-1,-1.0,6,
COc1ccc([N+](=O)[O-])cc1NC(=O)CCN1CCN(CCO)CC1,1%,-13,2,-0.2,-4,
COc1ccc(Cn2c(CO)cnc2SCC(=O)Nc2cccc(NC(C)=O)c2)cc1,x,x,0,-3.7,x,

# Further compounds.
SMILES,Mtb H37Rv,YopH inh,Mtb betalactam,RecA intein inh,Arbovirus inh,others
Cn1cnnc1SCC(=O)Nc1ccc(F)cc1F,0%,x,1,x,-2,
Cc1ccc(C(C)(O)CS(=O)(=O)Cc2ccccc2)cc1 (stereo not drawn),x,x,-1,-3.0,x,
CCOC(=O)C1=C(C)NC(=NC)SC1c1ccccc1 (stereo not drawn),-3%,x,7,0.6,-2,
Cc1ncoc1C(=O)N1CCCC(C(=O)c2cccc3ccccc23)C1 (stereo not drawn),1%,x,-9,-0.8,8,
COc1ccc(C2Nc3ccccc3C(=O)N2NC(C)=O)cc1OC (stereo not drawn),-8%,x,1,-9.2,1,
Cc1nn2c(-n3ccnc3C)c3c(nc2c1-c1ccccc1)CCC3,3%,-23,-1,3.3,0,
CCCOC(=O)c1c(-c2ccc(OC)cc2)oc2ccc(-c3ccc(OC)nc3)cc12,x,x,93,1.0,x,
O=C1CC(C(=O)Nc2cccc(F)c2)n2c(nc3ccccc32)N1 (stereo not drawn),x,x,-2,-1.4,x,
O=C(CSc1ccccc1C(=O)O)NCc1ccco1,-8%,-35,5,-0.3,0,
COc1ccc(/C=N/Nc2ncnc3c2[nH]c2ccccc23)c(OC)c1OC,5%,3,3,-4.5,-3,
COc1ccccc1/C=C(/CC(=O)NCc1ccc2c(c1)OCO2)c1nc2ccccc2s1,4%,-5,1,0.4,-14,
O=C(c1ccccc1)N1CCN(c2nc3ccc([N+](=O)[O-])cc3s2)CC1,-7%,x,-4,-0.3,6,
CCC(CC)C(=O)N1N=C(c2ccc(NS(C)(=O)=O)cc2)CC1c1ccccc1 (stereo not drawn),4%,x,5,-0.1,x,
CC1=C(C(=O)Nc2cccc(C(=O)N3CCN(c4cccc(C(F)(F)F)c4)CC3)c2)SCCO1,x,x,7,10,x,
Cc1cc(C)n2nc(C(=O)Oc3ccc4c(c3)OCO4)nc2n1,0%,x,0,x,7,Arbovirus inh repeat=2
CN(Cc1ccccc1)C(=O)c1ccccc1Br,12%,-34,-3,-3.3,6,
COC(=O)c1ccccc1NC(=S)N1CCC(N2CCCCC2)CC1,5%,x,-5,-1.8,5,
c1ccc2c(c1)CCN(c1nc3cc4c(cc3s1)OCO4)C2,20%,0,31,0.6,-17,
CCCNC(=O)c1onc(CSc2cccc(OC)c2)c1C(=O)NCCC,-4%,x,-4,-1.0,x,
Cc1c(C=O)c2ccccc2n1CCOc1ccccc1,x,x,-6,3.0,x,
CC(C)CCNC(=O)CN(Cc1ccc2c(c1)OCO2)C(=O)Cn1nnc(-c2cccs2)n1,11%,-52,1,2.0,-6,
Cc1cccc(C)c1NC(=O)C(C)c1ccc(-c2ccccc2)c(F)c1 (stereo not drawn),12%,-29,-5,1.1,10,
CC(=O)c1ccc(NC(=O)CSc2nnc(Cc3cccn3C)n2-c2ccc(F)cc2)cc1,0%,-42,-4,-0.2,0,Arbovirus inh repeat=6
Cc1ccc(-c2[nH]nc3c2C(c2ccccc2OC(=O)N2CCOCC2)C(C#N)=C(N)O3)cc1 (stereo not drawn),x,-23,-1,x,15,
O=C(Nc1cc(Cl)ccc1O)c1cc(-c2ccco2)on1,x,x,9,-0.3,x,
Clc1ccc(-c2nc(Cc3ccccc3Cl)no2)cc1,15%,-15,-2,5.8,-3,
COc1ccc(NC(=O)/C(C#N)=C/c2ccc(Sc3nncn3C)c([N+](=O)[O-])c2)cc1,-7%,x,4,11,-5,
CCN1CCN(CC(O)COc2ccc(Cl)cc2)CC1 (stereo not drawn),-7%,-25,9,4.0,-1,
O=C(NCCN1C(=O)S/C(=C\c2cccnc2)C1=O)c1cccc(OC(F)F)c1,-5%,-17,-2,1.5,4,
CCOC(=O)c1c(NC(=S)NCCc2ccccc2)sc2c1CC(C(C)C)OC2 (stereo not drawn),11%,-30,9,0.7,-4,
COc1ccc(N(CC(=O)NCCc2ccccc2)C(=O)CCC(=O)Nc2nccs2)cc1,x,x,4,1.1,x,
COC(=O)c1nc(N)sc1-c1ccc(OC)cc1,-1%,-16,-5,-0.1,-3,
Cc1cccc(N2CCN(C(=O)c3cnn4c(C(F)F)cc(-c5ccccc5)nc34)CC2)c1C,14%,-57,-5,4.0,-27,
CCOC(=O)C1CCCN(c2nc3ccccc3nc2C(C#N)C(=O)OC(C)C)C1 (stereo not drawn),10%,-22,3,-27,4,
CCN(CC)CCCN(Cc1cc2cc(OC)c(OC)cc2[nH]c1=O)C(=O)Nc1ccccc1,1%,-14,-4,-0.5,-4,
COc1cc2c3c(c1)C(C)CC(C)(C)N3C(=O)C2=O (stereo not drawn),5%,x,15,-3.4,-13,
NC1=NC(=O)C2(COC(c3cccc([N+](=O)[O-])c3)OC2)S1 (stereo not drawn),7%,x,-2,-0.3,8,
COc1ccc(-c2nc(N)nc(C(F)(F)F)c2-c2ccccc2OC)c(O)c1,x,x,7,-2.9,x,
CC(=O)c1ccc(NC(=O)COc2ccc3c(c2)OCO3)cc1,14%,x,-3,-2.4,-11,
CCOC(=O)c1ccc(S(=O)(=O)NNC(=O)COc2cccc(C)c2)cc1,-5%,-6,-1,0.7,2,
COc1ccc(NC(=O)COc2ccc(C(=O)OCC(=O)N(C(C)C)C(C)C)cc2OC)cc1,3%,x,7,-0.4,16,
COC(=O)C(O)(c1ccc(N(C)C(=O)c2ccc(Cl)c(Cl)c2)cc1)C(F)(F)F (stereo not drawn),-4%,-18,-1,6.8,-4,
CCOc1cc(N2C(=O)CC3CS(=O)(=O)CC32)c(OCC)cc1NC(=O)c1ccccc1 (stereo not drawn),-9%,-34,10,1.0,0,
COc1ccccc1NC(=O)Nc1nc(CC(=O)NCc2cccnc2)cs1,x,x,-11,0.5,x,
Cc1cccnc1NC(=O)c1cccc(S(=O)(=O)N2CCCC2)c1,x,x,0,-2.7,x,
O=C(COc1ccc(Cl)cc1)NCCSCc1ccccc1Cl,16%,-28,1,5.6,14,
Cc1ccc(S(=O)(=O)NCCC(=O)OCC(=O)NC(=O)c2cccn2C)cc1,-4%,x,28,1.9,x,
CC(C)c1nnc(NC(=O)c2cc3cc(Br)ccc3oc2=O)s1,x,x,99,-2.4,x,
COc1cc(OC)cc(C(=O)OCc2ccc([N+](=O)[O-])cc2)c1,-3%,x,0,1.6,0,
COc1cc(C(=O)N/N=C/c2coc3ccc(Cl)cc3c2=O)ccc1O,x,x,-5,23,x,
Cc1onc(-c2ccccc2Cl)c1C(=O)OCC(=O)N1CCN(c2ccccc2)CC1,x,x,-4,4.3,x,
CCNC(=O)COC(=O)c1[nH]c(C)c(C(=O)OC)c1C,2%,x,7,-1.2,-2,
CSc1ccc(-c2nnn(Cc3ccc(Br)cc3)n2)cc1,1%,-10,8,2.8,-5,
CCOC(=O)C(C)(C)Sc1ncnc2nc[nH]c12,-5%,-34,7,-0.7,-3,
O=C(NCCCc1ccccc1)c1cccc([N+](=O)[O-])c1,-2%,-29,-2,-2.3,-9,
CCCCOc1ccc2c(c1)C(=O)c1cc(O)ccc1-2,66%,x,16,8.6,-22,
CN1C=CC=C/C1=C1\SC(=S)N(Cc2ccccc2)C1=O,1%,x,-1,-2.2,-2,
CCOc1ccc(NC(=O)CN2C(=O)CSc3ccc(S(=O)(=O)N4CCCC4)cc32)cc1,x,x,6,1.3,x,
C=CCn1c(=O)c(C=Nc2c(OC)cccc2[N+](=O)[O-])c(O)n(CCCC)c1=O,-1%,-33,0,-0.6,2,
O=C1CC(Nc2ccccc2)C(=O)N1CCc1ccccc1 (stereo not drawn),19%,-14,-9,3.4,7,
CC(C)(Sc1cc(C(C)(C)C)c(O)c(C(C)(C)C)c1)Sc1cc(C(C)(C)C)c(O)c(C(C)(C)C)c1,1%,-42,-1,-0.5,22,

# Sorted by molecular weight (rising): some entries from above
SMILES,Mtb H37Rv,YopH inh,Mtb betalactam,RecA intein inh,Arbovirus inh,others
CCOC(=O)C(C)(C)Sc1ncnc2nc[nH]c12,-5%,-34,7,-0.7,-3,
CCCCOc1ccc2c(c1)C(=O)c1cc(O)ccc1-2,66%,x,16,8.6,-22,
O=C(NCCCc1ccccc1)c1cccc([N+](=O)[O-])c1,-2%,-29,-2,-2.3,-9,
CSc1ccc(-c2nnn(Cc3ccc(Br)cc3)n2)cc1,1%,-10,8,2.8,-5,
C=CCn1c(=O)c(C=Nc2c(OC)cccc2[N+](=O)[O-])c(O)n(CCCC)c1=O,-1%,-33,0,-0.6,2,
Cc1onc(-c2ccccc2Cl)c1C(=O)OCC(=O)N1CCN(c2ccccc2)CC1,x,x,-4,4.3,x,
CC(C)(Sc1cc(C(C)(C)C)c(O)c(C(C)(C)C)c1)Sc1cc(C(C)(C)C)c(O)c(C(C)(C)C)c1,1%,-42,-1,-0.5,22,

# These rows are one share of the data, so the mix of outcomes need not match the whole.
